# Cruzain noTriton: cruzain (T. cruzi) inhibition without detergent | AID 1476 | purified cruzain, Z-FR-AMC fluorescence, no detergent | 2.3% of 200,000 active | Potency, µM, for inactives: max response, negative = inhibition, hits mostly inhibitors;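 also: plate controls were enzyme without inhibitor for no effect and buffer without enzyme for full effect; nearly all actives have a fitted effect of over 40% in size; top concentration of the series not given in the record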
# Target sequence (P25779 123-467 limits assumed): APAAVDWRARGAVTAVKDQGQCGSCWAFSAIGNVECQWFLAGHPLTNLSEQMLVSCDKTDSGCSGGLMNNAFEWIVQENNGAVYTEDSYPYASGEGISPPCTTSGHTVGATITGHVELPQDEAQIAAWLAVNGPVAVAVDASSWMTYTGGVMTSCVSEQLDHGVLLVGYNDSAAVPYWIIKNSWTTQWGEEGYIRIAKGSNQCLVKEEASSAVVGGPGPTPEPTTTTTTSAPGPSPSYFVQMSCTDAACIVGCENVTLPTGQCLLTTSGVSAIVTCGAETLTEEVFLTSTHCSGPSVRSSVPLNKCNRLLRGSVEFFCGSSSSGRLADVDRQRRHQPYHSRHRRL
#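 Detergent-free condition (0.00005% Triton X-100) in acetate buffer pH 5.5 with DTT. 1.5 nM enzyme and compound were pre-mixed 15 min, then 2 uM Z-FR-AMC substrate added; reaction progress from fluorescence change between first and third reads (60 s).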
# SARS PLP yeast: blocks SARS-CoV papain-like protease in a yeast assay. S. cerevisiae expressing SARS-CoV PLpro, growth rescue; control for the full effect not named in the record. AID 485353. Potency, µM (titrated, usually from 32.9 µM), inactives show at the highest dose activity, positive = growth rescue. 0.19% of 330,000 active; active means well fitted rising curve with a large enough effect; inconclusive means small, poorly fitted or top-dose-only effect; inactive means no such curve, though single readings can be large or run the other way; also: 0% is about no effect; nearly all actives have a fitted effect of over 55% in size; growth read by luminescence after 48 h
# NS1 function inh: inhibitors of influenza NS1 protein function. Potency, µM (titrated, usually from 46.1 µM), for inactives: at the top dose activity, positive = more growth. 0.4% of 270,000 active. S. cerevisiae slowed by influenza A NS1, growth recovery by OD600; active means well fitted rising curve with a large enough effect; inconclusive means small, poorly fitted or top-dose-only effect; inactive means no such curve, though single readings can be large or run the other way; also: nearly all actives have a fitted effect of over 50% in size
#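 In this qHTS, NS1 from influenza A is expressed in budding yeast, where it slows growth. Cells are switched from glucose to 2% galactose medium (pH 6.0, -URA), treated with compound, and growth recovery is read at OD600.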
# RE007 growth inh: less growth of the S. pombe RE007 Vpr strain. Potency, µM (highest dose often 92.2 µM), for inactives: at the highest dose activity change, negative = less growth. S. pombe RE007 Vpr strain, BacTiter-Glo ATP luminescence, 24 h; control for the full effect not named in the record. 0.21% of 360,000 active; active = well fitted falling curve with a large enough effect; inconclusive = small, poorly fitted or top-dose-only effect; inactive = no such curve, though single readings can be large or run the other way;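 also: % is scaled to controls: 0 for no effect and ±100 for the full control effect; nearly all actives have a fitted effect of over 50% in size; the assay follows cell death caused by Vpr and the record does not say whether a fall means rescue or toxicity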
#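 Fission yeast RE007 carrying one integrated HIV-1 vpr copy, seeded at OD 0.01 in PMG+AL medium with 23 nL pinned compound. Grown 24 h at 30 degrees; viability read by BacTiter-Glo luminescence after 5 min.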
# Cruzain inh Det: blocks cruzain activity in presence of Triton detergent; purified cruzain, Z-FR-AMC fluorescence, 0.01% Triton; 0.43% of 200,000 active; AID 1478; Potency, µM, without a hit: max response, negative = inhibition, hits mostly inhibitors;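 also: plate controls were neutral wells for no effect and buffer without enzyme for full effect; nearly all actives have a fitted effect of over 40% in size; top concentration of the series not given in the record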
#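 15 min RT preincubation of 1.5 nM cruzain with compound, then 2 uM Z-FR-AMC added; kinetic AMC fluorescence, 60 s delta. Triton X-100 0.01%, pH 5.5.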
# 2A StopGo: FMDV 2A StopGo reporter, luciferase signal | 1.2% of 410,000 active | Potency, µM (highest dose often 57.9 µM), for the others: at the highest dose signal change, negative = less light | human cells with a luciferase reporter of 2A StopGo recoding; control for the full effect not named in the record; active = well fitted falling curve with a large enough effect; inconclusive = small, poorly fitted or top-dose-only effect; inactive = no such curve, though single readings can be large or run the other way; tested in HEK293T cells; also: % is scaled to controls: 0 for no effect and ±100 for the full control effect; nearly all actives have a fitted effect of over 45% in size; luciferase light after 4 h
# Lassa entry inh: inhibitors of Lassa virus binding or cell entry | Lassa virus pseudotype entry inhibition, cell reporter; control for the full effect not named in the record | 1.2% of 300,000 active | Potency, µM (top dose mostly 37.9 µM), for the others: top-dose activity change, negative = inhibition, actives largely listed as inhibitors; active means well fitted inhibition curve with a large enough effect; inconclusive means small, poorly fitted or top-dose-only effect, or effect the other way; inactive means flat fitted curve, though single readings scatter; tested in HEK293 cells; also: % is scaled to controls: 0 for no effect and ±100 for the full control effect; nearly all actives have a fitted effect of over 50% in size; luciferase read-out
# Marburg entry inh: blocks Marburg virus binding to or entry into cells. 1.8% of 300,000 active. Marburg virus pseudotyped entry inhibition, cell reporter; control for the full effect not named in the record; about a third of the inactives were read at about 46 µM. Potency, µM (doses to about 37.8 µM), for the others: top-dose activity change, negative = inhibition, usual class: inhibitors. AID 540276; active = well fitted inhibition curve with a large enough effect; inconclusive = small, poorly fitted or top-dose-only effect, or effect the other way; inactive = flat fitted curve, though single readings scatter; tested in HEK293 cells; about a fifth of its hits are not listed in these tables; also: % is scaled to controls: 0 for no effect and ±100 for the full control effect; luciferase read-out
# The depositor's hits bear a star; ? = inconclusive; . = not tested or not shown; & = joins results of further samples; [ ] = dose if it differs, or a comment. Unless noted, calls follow the shape of the dose curve; as a rule, active = well fitted curve in the direction sought with a large enough effect; inconclusive = small, poorly fitted or top-dose-only effect, or another doubt; inactive = no such curve, though single readings can be large; an effect the other way counts as inactive or inconclusive. Potency is read from the fitted curve at half-maximal effect. Compounds were not picked by outcome (roughly 4.8% active in at least one column).
SMILES,Cruzain noTriton,SARS PLP yeast,NS1 function inh,RE007 growth inh,Cruzain inh Det,2A StopGo,Lassa entry inh,Marburg entry inh
O=C(CSc1nnc(-c2ccncc2)n1Cc1ccccc1)NC1CCCc2ccccc21 (stereo not drawn),12%,24%,-8%,-6%,1.4%,-15%,-15%,1%
CSc1ccc(CN(C)C(=O)c2cc(=O)c3ccccc3o2)cc1,.,-13%,-19%,4%,.,17%,-2%[46.1 µM],0%[46.1 µM]
CCOC(=O)Cc1c(C)nc2c(-c3ccccc3)cnn2c1C,.,0%,-15%,-4%,.,50%[activator],.,.
CCOC(=O)Nc1ccc(NC(=O)c2c(OC)cccc2OC)cc1,-7%,2%,2%,9%,5.4%,.,-19%,21%
CC1CCN(C2=C(NS(=O)(=O)c3ccccc3)C(=O)c3ccccc3C2=O)CC1,.,-8%,8%,-23%,.,-16%,-30%,?
CSc1ccccc1NC(=O)c1ccc(CN2CCOCC2)cc1,.,0%,.,-5%,.,12%,14%[46.1 µM],?
COC(=O)C1C(=O)c2c([nH]c(C(=O)OCCSC)c2C)CC1C (stereo not drawn),8%,4%,-37%,6%,-3.7%,48%[activator],.,.
S=C1NC2(CCCCC2)Nc2ccccc21,.,0%,7%,6%,.,-14%,.,.
CC(=O)Nc1ccc(NC(=O)C(F)(F)F)cc1,-3%,7%,11%,-2%,0.8%,-13%,-14%,-33%
Cc1ccc(S(=O)(=O)c2nc(-c3ccco3)oc2NCC2CCCO2)cc1 (stereo not drawn),10µM*,4%,8%,19%,11µM*,21%,-6%,-16%
CCN(CC)c1ccc(/C=N/NC(=O)Cc2nnc(NC(=O)Nc3ccccc3)s2)cc1,?,13%,-8%,4%,-6.1%,-16%,?,8%[46.1 µM]
CCOC(=O)C1C(=O)C=C(/C=C/c2ccccc2)CC1c1ccc(Cl)cc1 (stereo not drawn),?,-1%,-5%,-4%,-5.8%,-15%,-1%,?
COc1ccc(CCNC(=O)CSc2nnnn2-c2cccc(C(C)=O)c2)cc1OC,-6%,.,.,.,-0.5%,-3%,8%[46.1 µM],12%[46.1 µM]
O=C(NCC(=O)N1CCN(C(=O)c2ccco2)CC1)c1ccc(Cl)cc1,.,.,.,19%,.,13%,0%,0%
COc1ccc(CNC(=O)C(c2ccncc2)N(C(=O)Cc2cccs2)c2ccc(C)cc2)cc1 (stereo not drawn),27%,-1%,-34%,7%,-3.9%,.,?,?
CN(C)CCNC(=O)c1ccc(-n2c(-c3ccccc3)cc3c2CCCCC3)cc1,?,.,.,.,-7.0%,1%,-10%[46.1 µM],.
COc1cccc(-c2cc(N3C(=O)Nc4ccccc4N3O)n[nH]2)c1,-4%,-5%,9%,-6%,-2.4%,-13%,?,4%
CC1CC(C)CN(CCCNC(=O)c2ccc3c(c2)ncn3C2CCCC2)C1 (stereo not drawn),.,17%,?,-2%,.,8%,.,.
COc1ccc(CNCc2cc3c(cc2[N+](=O)[O-])OCO3)cc1,.,15%,7%,1%,.,12%,-2%,0%
CN1CCN(C(=O)c2ccc(-c3ccc(Br)cc3)o2)CC1,.,1%,.,-4%,.,0%,-16%,11%
COc1ccc(C(N)c2nccc3cc(OC)c(OC)cc23)cc1OC (stereo not drawn),.,-1%,12%,17%,.,-9%,.,.
Cc1ccc(OCC(=O)NCc2cccs2)c([N+](=O)[O-])n1,.,0%,0%,0%,.,25%,-1%,-26%[46.1 µM]
CC(OC(=O)c1ccccc1NCCO)C(=O)NCC(=O)Nc1ccc(F)c(F)c1F (stereo not drawn),.,2%,0%,-3%,.,14%,-1%,16%
CC(C)c1ccc(C(C)NCCS(=O)(=O)c2ccc(Br)cc2)cc1 (stereo not drawn),.,-1%,0%,13%,.,-22%,26%[46.1 µM],?
Cc1ccc(-n2c(C)c3c(C)nnc(C)c3c2C)cc1C,?,-12%,5%,-7%,-3.3%,?,?,?

# Whole records, looked up by structure. Order of values: Cruzain noTriton	SARS PLP yeast	NS1 function inh	RE007 growth inh	Cruzain inh Det	2A StopGo	Lassa entry inh	Marburg entry inh
# CCOC(=O)Cc1c(C)nc2c(-c3ccccc3)cnn2c1C across the screens: .	0%	-15%	-4%	.	50%[activator]	.	.
# CN(C)CCNC(=O)c1ccc(-n2c(-c3ccccc3)cc3c2CCCCC3)cc1 across the screens: ?	.	.	.	-7.0%	1%	-10%[46.1 µM]	.

# The listing continues:
SMILES,Cruzain noTriton,SARS PLP yeast,NS1 function inh,RE007 growth inh,Cruzain inh Det,2A StopGo,Lassa entry inh,Marburg entry inh
Cc1ccc(C(=O)NCC(C)(C)N2CCOCC2)s1,9%,0%,8%,2%,12%,9%,-2%,9%
COC(=O)c1ccc(Oc2coc3cc(OCc4ccc([N+](=O)[O-])cc4)ccc3c2=O)cc1,10µM*,-2%,-5%,.,-5.2%,-16%,1%,4%
CCC(C(=O)OC)n1cnc2c(nnn2-c2ccc(OC)cc2)c1=O (stereo not drawn),-1%,18%,-6%,8%,0.7%,16%,-1%,-8%
Cc1ccc(C(=O)NCC(=O)N/N=C/c2sccc2C)cc1[N+](=O)[O-],.,0%,-2%,-9%,.,-9%,-10%,-7%
Cc1ccc(C)c(N2CCN(C(=O)c3ccc(Cn4c(=S)[nH]c5ccc(N6CCOCC6)cc5c4=O)cc3)CC2)c1,.,0%,.,-3%,.,45%[activator],10%,-11%[46.1 µM]
c1ccc2oc(NC3=NCN(CC4CCCO4)CN3)nc2c1 (stereo not drawn),-4%,1%,4%,-9%,-3.1%,49%[activator],?,5%
CCOC(=O)c1cc(-c2ccc(F)cc2)n(CC(=O)N2CCCC2)c1C,?,0%,2%,16%,-1.5%,-14%,10%,1%
Cc1ccc2nc(Cl)c(CNCc3ccccc3)cc2c1,.,1%,-2%,-20%,.,37%[activator],.,.
O=c1c2ccccc2nnn1-c1ccc(Br)cc1,.,1%,-1%,-3%,.,64%[activator],.,.
Cc1cc(=O)[nH]c(NN=C2CCCCC2C)n1 (stereo not drawn),.,.,.,3%,.,-5%,1%,0%
CC(=O)N1CCN(CCS(=O)(=O)c2cc(Cl)ccc2Cl)CC1,.,-11%,.,4%,.,-8%,-3%,-17%
N#Cc1cnn(-c2nc(SCc3ccccc3)nc3sc4c(c23)CCCC4)c1N,?,0%,8%,-16%,3.8%,-21%,-25%,-29%
O=C(COC(=O)c1ccc(Br)o1)NCc1ccc(Cl)cc1,.,1%,.,-15%,.,-9%,0%,-21%
CCOC(=O)Cn1c(=O)c(-c2ccccc2N)nc2ccccc21,.,0%,-5%,-6%,.,-9%,.,.
Cc1ccc(Cl)cc1N1CCN(S(=O)(=O)c2ccc3oc(=O)c4ncn(C)c4c3c2)CC1,8%,.,.,.,-0.7%,-7%,21%[46.1 µM],5%[46.1 µM]
CC(Oc1ccc(Cl)cc1Cl)C(=O)OCC(=O)c1c(N)n(C)c(=O)n(C)c1=O (stereo not drawn),.,4%,.,-5%,.,-10%,-6%,-10%
Nc1ccc2cn[nH]c2c1,9%,0%,4%,2%[18.4 µM],1.5%,-12%,4%,-12%
CC(C)Cn1c([N+](=O)[O-])nc2c1c(=O)[nH]c(=O)n2C,.,12%,-4%,2%,.,28µM*,7.1µM*,?
CCOc1ccc(CCN2CN(CC)CNC2=S)cc1OCC,.,-4%,.,-5%,.,2%,4%,?
Fc1ccccc1COc1ccc(Br)cc1CNCc1cccnc1,.,-1%,1%,-19%,.,?,?,?
COC(=O)C1CCN(c2nc3ccccc3nc2C(C#N)C(=O)OCC(C)C)CC1 (stereo not drawn),11%,-2%,9%,-11%,0.8%,0%,-3%,-10%[46.1 µM]
COc1ccc(Cc2nnc(N/N=C/c3ccc(O)cc3)[nH]c2=O)cc1OC,9%,?,-32%,5%,-6.4%,-25%,?,?
COc1ccc(-c2cc(-c3ccccc3)c(C#N)c(SCC(=O)O)n2)cc1,.,.,.,-14%,.,-12%,1%,-29%[46.1 µM]
COc1ccc2c(Cl)c(C(=O)N/N=C3\CCCC(=O)C3)sc2c1,.,-2%,31%,-21%,.,59%[activator],-15%,?
CCn1c(SCC(=O)Nc2cc(OC)c(OC)c(OC)c2)nnc1-c1cccs1,2%,7%,0%,-1%,3.4%,.,-11%,?

# Carrying on:
SMILES,Cruzain noTriton,SARS PLP yeast,NS1 function inh,RE007 growth inh,Cruzain inh Det,2A StopGo,Lassa entry inh,Marburg entry inh
CC(C)c1ccc(S(=O)(=O)c2cn(CC(=O)Nc3ccc(F)cc3)c3ccccc3c2=O)cc1,3%,.,.,.,-0.1%,-18%,-4%[46.1 µM],0%[46.1 µM]
Cc1cc(C(=O)OCC(=O)Nc2ccccc2C#N)c(C)o1,.,-8%,.,10%,.,-4%,6%,9%
CCN(CC)CCN=Cc1c(O)n(Cc2ccco2)c(=O)[nH]c1=O,.,-1%,-2%,9%,.,-22%,13%,?
Cc1cc(=O)[nH]c(SCC(=O)N2CCc3ccccc3C2)n1,-5%,6%,5%,-7%,0.9%,6%,-2%,-3%
COCCNC(=O)CN(Cc1ccc2c(c1)OCO2)C(=O)CCC(=O)Nc1nccs1,-3%,?,-5%,18%,2.9%,?,23%,1%&-28%
C=CCNC(=O)C1CC2Cn3c(nc4ccccc43)C2N1C (stereo not drawn),.,1%,2%,0%,.,-9%,.,.
O=C(NCCOCCn1c(=O)oc2ccccc21)Nc1ccc(Cl)cc1,-10%,.,.,.,-2.0%,-23%,-19%[46.1 µM],-7%[46.1 µM]
O=C(NCc1cccs1)c1ccc2c(c1)OCCO2,-7%,-1%,-2%,4%,-1.6%,49%[activator],12%,14%
CCOc1ccc(S(=O)(=O)N2CCN(C(=O)CN3C(=O)NC4(CCCC4)C3=O)CC2)cc1,.,-15%,.,3%,.,-1%,12%[46.1 µM],6%
CC(C)(C)c1ccc(OCCC(=O)OCC(=O)Nc2cccnc2Cl)cc1,.,-7%,.,2%,.,-3%,0%,19%
Cc1ccccc1NC(=O)/C(C#N)=C\c1cccnc1,-12%,6%,18%,-2%,-5.7%,12%,3%,-2%
COC(=O)C(O)(CC(=O)Nc1cc(Cl)ccc1Cl)C(F)(F)F (stereo not drawn),0%,3%,-2%,6%,-2.5%,5%,13%,0%

# Screening data deposited in PubChem by National Center for Advancing Translational Sciences (NCATS).
